MARV entry inh: blocks Marburg virus binding to or entry into cells; Marburg virus pseudotyped entry inhibition, cell reporter; control for the full effect not named in the record; about a third of the inactives were read at about 46 µM; Potency, µM (titrated, usually from 37.8 µM), inactives show top-dose activity change, negative = inhibition, most hits filed as inhibitors; actives 1.8% (n = 300,000); AID 540276; active = well fitted inhibition curve with a large enough effect; inconclusive = small, poorly fitted or top-dose-only effect, or effect the other way; inactive = flat fitted curve, though single readings scatter; tested in HEK293 cells; about a fifth of its hits are not listed in these tables; further: on the % scale 0 is the no-effect control and ±100 the full control effect; luciferase read-out
NS1 function inh: blocks influenza NS1 protein function; S. cerevisiae slowed by influenza A NS1, growth recovery by OD600; Potency, µM (highest dose often 46.1 µM), for the others: at the top dose activity, positive = more growth; actives 0.4% (n = 270,000); AID 2326; further: actives are rising curves; nearly all actives have a fitted effect of over 50% in size
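OD600 was taken as the measure of yeast growth restored by compound in an NS1-expressing S. cerevisiae strain. Cells had been washed out of glucose medium and diluted 1:100 into galactose -URA medium, pH 6.0.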
LASV entry inh: Lassa virus entry inhibition | Lassa virus pseudotype entry inhibition, cell reporter; control for the full effect not named in the record | Potency, µM (top dose mostly 37.9 µM), for inactives: at the top dose activity change, negative = inhibition, usual class: inhibitors | actives 1.2% (n = 300,000); active means well fitted inhibition curve with a large enough effect; inconclusive means small, poorly fitted or top-dose-only effect, or effect the other way; inactive means flat fitted curve, though single readings scatter; tested in HEK293 cells; further: on the % scale 0 is the no-effect control and ±100 the full control effect; nearly all actives have a fitted effect of over 50% in size; luciferase read-out
StopGo reporter: FMDV 2A StopGo reporter, luciferase signal | human cells with a luciferase reporter of 2A StopGo recoding; control for the full effect not named in the record | actives 1.2% (n = 410,000) | AID 1159524 | Potency, µM (titrated, usually from 57.9 µM), inactives show at the highest dose signal change, negative = less light; active = well fitted falling curve with a large enough effect; inconclusive = small, poorly fitted or top-dose-only effect; inactive = no such curve, though single readings can be large or run the other way; tested in HEK293T cells; further: on the % scale 0 is the no-effect control and ±100 the full control effect; nearly all actives have a fitted effect of over 45% in size; luciferase light after 4 h
Cruzain noTriton: blocks cruzain activity in detergent-free assay. P25779. Potency, µM, inactives show max response, negative = inhibition, hits mostly inhibitors. AID 1476. purified cruzain, Z-FR-AMC fluorescence, no detergent. actives 2.3% (n = 200,000); active means well fitted curve in the direction sought with a large enough effect; inconclusive means small, poorly fitted or top-dose-only effect, or another doubt; inactive means no such curve, though single readings can be large; an effect the other way counts as inactive or inconclusive;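 further: plate controls were enzyme without inhibitor for no effect and buffer without enzyme for full effect; nearly all actives have a fitted effect of over 40% in size; top concentration of the series not given in the record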
Target sequence (P25779 123-467 limits assumed): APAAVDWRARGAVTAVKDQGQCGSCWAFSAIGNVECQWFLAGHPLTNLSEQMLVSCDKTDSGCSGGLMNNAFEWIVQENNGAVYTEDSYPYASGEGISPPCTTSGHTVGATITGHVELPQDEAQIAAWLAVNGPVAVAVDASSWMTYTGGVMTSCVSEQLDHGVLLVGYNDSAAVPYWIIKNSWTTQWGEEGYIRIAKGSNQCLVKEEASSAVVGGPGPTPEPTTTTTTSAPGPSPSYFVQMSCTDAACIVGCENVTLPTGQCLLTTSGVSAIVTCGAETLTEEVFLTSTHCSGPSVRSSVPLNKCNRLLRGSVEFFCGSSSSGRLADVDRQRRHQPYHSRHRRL
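Detergent-free condition (0.00005% Triton X-100) in acetate buffer pH 5.5 with DTT. 1.5 nM enzyme and compound were pre-mixed 15 min, then 2 uM Z-FR-AMC substrate added; reaction progress from fluorescence change between first and third reads (60 s).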
Cruzain Triton: cruzain (T. cruzi) inhibition with detergent. P25779. purified cruzain, Z-FR-AMC fluorescence, 0.01% Triton. Potency, µM, inactives show max response, negative = inhibition, most hits filed as inhibitors. actives 0.43% (n = 200,000). AID 1478; active means well fitted curve in the direction sought with a large enough effect; inconclusive means small, poorly fitted or top-dose-only effect, or another doubt; inactive means no such curve, though single readings can be large; an effect the other way counts as inactive or inconclusive;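 further: plate controls were neutral wells for no effect and buffer without enzyme for full effect; nearly all actives have a fitted effect of over 40% in size; top concentration of the series not given in the record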
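Steps: dispense cruzain (1.5 nM final) in acetate buffer pH 5.5 with DTT and 0.01% Triton X-100; pin-transfer compounds; incubate 15 min RT; add Z-FR-AMC (2 uM final); read fluorescence every 30 s, using the 60 s intensity change.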
SARS PLpro yeast: SARS-CoV PLP inhibition in yeast. AID 485353. S. cerevisiae expressing SARS-CoV PLpro, growth rescue; control for the full effect not named in the record. Potency, µM (series often up to 32.9 µM), inactives show at the highest dose activity, positive = growth rescue. actives 0.19% (n = 330,000); further: 0% is about no effect; nearly all actives have a fitted effect of over 55% in size; growth read by luminescence after 48 h
RE007 growth inh: less growth of the S. pombe RE007 Vpr strain | S. pombe RE007 Vpr strain, BacTiter-Glo ATP luminescence, 24 h; control for the full effect not named in the record | Potency, µM (titrated, usually from 92.2 µM), for inactives: at the top dose activity change, negative = less growth | actives 0.21% (n = 360,000) | AID 651644; active = well fitted falling curve with a large enough effect; inconclusive = small, poorly fitted or top-dose-only effect; inactive = no such curve, though single readings can be large or run the other way;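 further: on the % scale 0 is the no-effect control and ±100 the full control effect; nearly all actives have a fitted effect of over 50% in size; the assay follows cell death caused by Vpr and the record does not say whether a fall means rescue or toxicity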
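Fission yeast strain RE007, carrying one chromosomally integrated HIV-1 vpr copy, was seeded at OD 0.01 in PMG+AL medium with 23 nL pinned compound. After 24 h at 30 °C and 99% humidity, viability was read by BacTiter-Glo luminescence.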
Starred values were filed as active, the others as inactive; u = inconclusive; x = no result given; & = joins results of further samples; [ ] = dose if it differs, or a comment. Unless noted, the call rests on the fitted dose curve; in most records, active means well fitted rising curve with a large enough effect; inconclusive means small, poorly fitted or top-dose-only effect; inactive means no such curve, though single readings can be large or run the other way. Potency means the concentration at half of the fitted maximal effect.

Every second line gives: MARV entry inh	NS1 function inh	LASV entry inh	StopGo reporter	Cruzain noTriton	Cruzain Triton	SARS PLpro yeast	RE007 growth inh
> COc1ccc(NCC(O)Cn2c(C)c(C)c3ccccc32)cc1 (stereo not drawn)
    -26%[46.1 µM]	1%	u	u	x	x	0%	0%
> CCCc1ccc(S(=O)(=O)NCC2CCCN2CC)cc1 (stereo not drawn)
    5%[46.1 µM]	0%	-3%[46.1 µM]	5%	x	x	0%	2%
> CC1CC(C)(C)NC(=S)N1CCCC(=O)Nc1ccc(F)cc1 (stereo not drawn)
    1%[46.1 µM]	x	18%	-6%	x	x	-1%	4%
> Cc1ccc(C(=O)CSc2nc(N)cc(=O)[nH]2)cc1C
    7%[46.1 µM]	u	-21%[46.1 µM]	-21%	x	x	-4%	-9%
> Cc1ccc(NC(=S)N2CCC(c3ccccc3)C2)c(Cl)c1 (stereo not drawn)
    u	x	10µM*	2%	x	x	-5%	-22%
> CC1(C)Cc2ccccc2C(=O)N1
    u	1%	1%	5%	0%	4.1%	1%	-6%
> Cc1nn(C)c(C(=O)NNC(=S)NCc2ccco2)c1Cl
    21%	9%	-1%	-17%	15%	0.1%	3%	-15%
> COc1ccc(-c2c(C)c3ccc(O)c(CN4CCCCC4)c3oc2=O)cc1OC
    x	x	10%[46.1 µM]	-5%	4%	-2.5%	x	x
> COc1ccc(-c2c(C#N)c(N)nc(Sc3ccc(Cl)cc3)c2C#N)cc1
    0%[14.2 µM]	3%	3%	-12%	x	x	0%	3%
> CN(CCCC1CCCC1)C(=O)CC1C(=O)NCCN1Cc1cccc(F)c1F (stereo not drawn)
    3%	0%	3%	-26%	x	x	-6%	-5%
> O=S(=O)(Nc1ccc(Br)cc1)c1cccc2nonc12
    x	-10%	x	14%	x	x	-1%	1%
> CCOC(=O)Nc1ccc2c(c1)N(C(=O)CN1CCN(C)CC1)c1ccccc1CC2
    x	-2%	x	-4%	x	x	7%	2%
> CN(CCCCCC(=O)/C=N/O)Cc1ccccc1
    0%	2%	6%	-14%	8%	-1.5%	1%	18%
> O=C(Cc1n[nH]c(=O)c2ccccc12)N1CCN(S(=O)(=O)c2ccc(F)c(Cl)c2)CC1
    10%[46.1 µM]	x	-1%[46.1 µM]	-12%	x	x	3%	18%
> CCOc1ccccc1NC(=O)Cn1c2ncccc2c(=O)n1-c1ccc(C)c(C)c1
    x	x	28%[46.1 µM]	-16%	-4%	-1.5%	x	x
> CN(C)S(=O)(=O)c1ccc(SCC(=O)N2CC(=O)Nc3ccccc32)nc1
    0%	x	15%	10%	x	x	-3%	17%
> COc1ccc(/C=C2\SC(c3ccc(C)cc3)=NC2=O)cc1OC
    17%	25%	-7%	x	u	-6.9%	3%	0%
> Cc1ccc(N2C(=O)[C@@H]3C(C(=O)C(c4ccccc4)c4ccccc4)=NN[C@@H]3C2=O)cc1
    31%	24%	-10%	0%	-8%	-2.7%	-28%	4%
> CC(c1nccs1)N(C)c1nc2nonc2nc1N(C)C (stereo not drawn)
    6%[46.1 µM]	3%	11%[46.1 µM]	74%	x	x	1%	-19%
> Clc1cccc2c1Sc1ccccc1CC2N1CCNCC1 (stereo not drawn)
    u	-75%	5.2µM*	-22%	-1%	-3.3%	-42%	0%
> Cc1ccc(S(=O)(=O)Nc2nc3n(n2)C(c2ccc(F)cc2)C=C(c2ccccc2)N3)cc1 (stereo not drawn)
    16%[46.1 µM]	x	-11%[46.1 µM]	-11%	-15%	-5.5%	x	x
> Cc1nnnn1/C(=C\c1ccccc1)C(=O)OCC(=O)Nc1ccc(Cl)cc1F
    u	x	20µM*	28µM*	x	x	-4%	-13%
> Cc1ccc2[nH]c(=O)c(CN(CCO)C(=O)N(C)C)cc2c1
    0%	x	-7%	7%	x	x	x	9%
> C=CCNC(=S)NNC(=O)Cn1c(-c2ccccc2)cc(=O)n2ncnc12
    x	0%	x	-21%	x	x	4%	9%
> COc1cccc(C(=O)c2cc3cc(Cl)ccc3[nH]2)c1
    -6%	-4%	-11%	62%[activator]	x	x	-1%	11%
> O=C(CN1CCN(Cc2ccc(Cl)cc2)CC1)N/N=C/c1c[nH]c2ccccc12
    -1%	5%	u	u	7%	-4.4%	-3%	-3%
> COc1ccc2ncc(S(=O)(=O)c3ccccc3)c(N3CCC4(CC3)OCCO4)c2c1
    u	-14%	-26%	u	u	-5.1%	-59%	3%
> CC1CC(CC(C)C(=O)NC(=S)Nc2ccc(S(N)(=O)=O)cc2)C(=O)O1 (stereo not drawn)
    23%[46.1 µM]	x	15%[46.1 µM]	-3%	x	x	0%	3%
> CC(NC(=O)Cn1nc(C(=O)O)c2ccccc2c1=O)c1ccccc1 (stereo not drawn)
    u	-5%	3%	-22%	-13%	0.0%	16%	12%
> O=S(=O)(c1ccccc1Cl)N1CCCC1c1nc(-c2ccccc2Cl)no1 (stereo not drawn)
    u	4%	u	u	-2%	5.1%	5%	7%
> Cc1c(Cl)c([N+](=O)[O-])nn1CC(=O)NCC1CCCO1 (stereo not drawn)
    -1%[46.1 µM]	-1%	21%	21%	x	x	0%	3%
> COCCSc1nnc(NC(=O)COC)s1
    u	-11%	-1%	-3%	-1%	1.9%	4%	-12%
> c1ccc(CSc2nnc(-c3ccco3)n2Cc2ccco2)cc1
    u	-62%	u	2%	7%	0.2%	-33%	21%
> CNC(=S)N(C)CCc1cc2c(c(OC)c1C=C1C(=O)NC(=O)NC1=O)OCO2
    -15%[46.1 µM]	-1%	u	-20%	x	x	0%	3%
> Nc1c2c(nc3ccc(Br)cc13)N(c1ccccc1)CC2
    1%	-9%	7%	x	-28%	-5.3%	u	-3%
> COc1ccc(N2CCN(C(=O)c3c4c(nc5ccccc35)C(=O)N(C3CCCCC3)C4)CC2)cc1
    x	x	5%[46.1 µM]	-15%	9%	0.2%	x	x
> COc1ccccc1-n1cnnc1SCC(=O)Nc1cc(C(C)(C)C)nn1-c1ccccc1
    -21%	6%	-11%	-27%	u	-2.4%	6%	-5%
> C=C(C)CSCc1nc2ccccc2[nH]1
    -1%[46.1 µM]	-31%	22%	10%	1%	5.2%	5%	3%
> CCCCCN(C(=O)CCC(=O)OCc1cccc(C(F)(F)F)c1)c1c(N)n(CCCC)c(=O)[nH]c1=O
    12%	u	u	-19%	x	x	0%	5%
> CSCCC(NC(=O)c1cc(S(=O)(=O)N2CCOCC2)ccc1F)c1nc2ccccc2[nH]1 (stereo not drawn)
    -5%	x	-5%	0%	x	x	-2%	7%
> O=C(Nc1nccs1)c1cccc(NC(=O)c2ccco2)c1
    17%	3%[9.22 µM]	-3%	-21%	-9%	-3.8%	1%	12%
> C/C(=N\OCc1ccccc1)c1c(O)cc(C(C)C)n(-c2ccccc2)c1=O
    27%	-34%	11%	-13%	-13%	-4.6%	-6%	-9%
> COCCNC(=S)NN=C1CCCCC1
    u	x	u	-2%	x	x	8%	-13%
> CCSc1nnc(NC(=O)CSc2nnc(-c3c[nH]c4ccccc34)n2C)s1
    x	6%	x	-13%	-10%	-3.1%	3%	-2%
> O=C1Nc2ccc(S(=O)(=O)N3CCCC3)c3cccc1c23
    6%	-3%	-2%	x	-7%	-2.9%	5%	0%
> Cc1cc(C(=O)NNC(=O)c2cccc(C(F)(F)F)c2)no1
    x	-1%	x	-14%	x	x	-2%	-9%
> Cc1ccccc1C(c1c(C)n(C)n(-c2ccccc2)c1=O)c1c(C)n(C)n(-c2ccccc2)c1=O
    -14%[46.1 µM]	x	19%[46.1 µM]	u	4%	-0.2%	x	x
> CN1CCN(C(=O)COc2ccc(C(C)(C)C)cc2Br)CC1
    -9%[46.1 µM]	4µM*	15%	-14%	4%	5.1%	-4%	17%
> Cc1c2c(nc3nnnn13)CCCC2
    0%[46.1 µM]	6%	-18%	0%	x	x	1%	9%
> Cc1occc1-c1nnc(SCC(=O)NC2CC2)n1C(C)C
    x	8%	x	0%	x	x	2%	16%
> Cc1cccc(C(=O)Nc2ccc3c(c2)C(=O)N(CC(C)C)C3=O)c1
    x	1%	x	10%	x	x	0%	2%
> Cc1nc2ccccc2n1CCC(=O)Nc1cccc(F)c1
    u	-5%	-2%	-20%	6%	-0.8%	2%	14%
> O=C(NC(NCc1cccnc1)C(Cl)(Cl)Cl)c1cccc2ccccc12 (stereo not drawn)
    -27%	-12%	-12%	0%	-5%	-1.6%	-13%	0%
> CCOC(=O)Cc1nnc(NC(=O)COc2ccc(OC)cc2)s1
    -4%	8%	-1%	21%	-5%	1.3%	-10%	-19%
> COc1cc(C2NC(=O)NC(C)=C2C(=O)OCC2CCCCC2)ccc1O (stereo not drawn)
    x	14%	x	-8%	x	x	-2%	-8%
> O=C(CSc1nncs1)Nc1ccc(S(=O)(=O)N2CCCC2)cc1
    2%[46.1 µM]	x	3%[46.1 µM]	-7%	x	x	0%	-17%
> O=C(CSc1nnc(-c2ccco2)n1Cc1ccco1)Nc1ccccc1
    -7%	-4%	-9%	-8%	-5%	0.0%	0%	-10%
> COCCCNC(=O)Cn1c(=O)nc(-c2ccccc2)c2ccccc21
    x	x	-10%[46.1 µM]	16%	-6%	-0.4%	x	x
> O=C(NCc1ccco1)c1cc2c(s1)CCCCC2
    2%	-37%	u	91%[activator]	u	-9.9%	-33%	-16%
> CCOc1ccc(S(=O)(=O)Nc2cccc(C)c2)c2cccnc12
    u	-5%	-23%&-19%[46.1 µM]	66%&56%[activator]	x	x	3%	-12%
> CCCNc1cc(=S)nc(N)[nH]1
    1%[46.1 µM]	6%	-8%[46.1 µM]	-17%	x	x	1%	-8%
> COC(=O)c1c(NC(=O)Cn2cc([N+](=O)[O-])cn2)sc2c1CCC2
    7%[46.1 µM]	-4%	10%	-21%	-9%	-1.5%	-25%	-2%
> O=C1C2C3c4ccccc4C(c4ccccc43)C2C(=O)N1/N=C/c1cccc(O)c1 (stereo not drawn)
    -19%	1%	8%	u	18%	-3.5%	-1%	27%

Assay outcomes as filed in PubChem.
